# Assay outcomes deposited in PubChem BioAssay by National Center for Advancing Translational Sciences (NCATS).
# Cruzain inh noDet – inhibitors of Trypanosoma cruzi cruzain without detergent; P25779; purified cruzain, Z-FR-AMC fluorescence, no detergent; AID 1476; Potency, µM, inactives show max response, negative = inhibition, usual class: inhibitors; 200,000 compounds, 2.3% hits;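 also: plate controls were enzyme without inhibitor for no effect and buffer without enzyme for full effect; nearly all actives have a fitted effect of over 40% in size; top concentration of the series not given in the record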
# Target sequence (P25779 123-467 limits assumed): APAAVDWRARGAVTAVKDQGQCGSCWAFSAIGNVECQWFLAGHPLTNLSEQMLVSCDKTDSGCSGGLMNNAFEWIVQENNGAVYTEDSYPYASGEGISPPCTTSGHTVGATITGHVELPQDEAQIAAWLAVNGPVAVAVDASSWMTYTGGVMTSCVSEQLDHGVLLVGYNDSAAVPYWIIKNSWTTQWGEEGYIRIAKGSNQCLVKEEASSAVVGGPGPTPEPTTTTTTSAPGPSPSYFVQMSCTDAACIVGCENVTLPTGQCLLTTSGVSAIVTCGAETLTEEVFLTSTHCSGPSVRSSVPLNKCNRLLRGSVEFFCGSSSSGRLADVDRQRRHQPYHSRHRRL
#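 Purified cruzain at 1.5 nM, pre-incubated 15 min with compound at room temperature in 100 mM sodium acetate pH 5.5, 5 mM DTT, 0.00005% Triton X-100. Reaction started with 2 uM Z-FR-AMC; AMC fluorescence increase over 60 s gives rate.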
# Marburg entry inh – inhibitors of Marburg virus binding or cell entry. Potency, µM (highest dose often 37.8 µM), for the others: at the highest dose activity change, negative = inhibition, most hits filed as inhibitors. AID 540276. 300,000 compounds, 1.8% hits. Marburg virus pseudotyped entry inhibition, cell reporter; control for the full effect not named in the record; about a third of the inactives were read at about 46 µM; active = well fitted inhibition curve with a large enough effect; inconclusive = small, poorly fitted or top-dose-only effect, or effect the other way; inactive = flat fitted curve, though single readings scatter; tested in HEK293 cells; about a fifth of its hits are not listed in these tables; also: % is scaled to controls: 0 for no effect and ±100 for the full control effect; luciferase read-out
# 2A StopGo – lowers the luciferase signal of an FMDV 2A StopGo reporter; human cells with a luciferase reporter of 2A StopGo recoding; control for the full effect not named in the record; Potency, µM (top dose mostly 57.9 µM), without a hit: at the highest dose signal change, negative = less light; 410,000 compounds, 1.2% hits; active = well fitted falling curve with a large enough effect; inconclusive = small, poorly fitted or top-dose-only effect; inactive = no such curve, though single readings can be large or run the other way; tested in HEK293T cells; also: % is scaled to controls: 0 for no effect and ±100 for the full control effect; nearly all actives have a fitted effect of over 45% in size; luciferase light after 4 h
# Cruzain Triton – inhibitors of Trypanosoma cruzi cruzain with detergent; P25779; purified cruzain, Z-FR-AMC fluorescence, 0.01% Triton; Potency, µM, for the others: max response, negative = inhibition, usual class: inhibitors; 200,000 compounds, 0.43% hits; AID 1478;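 also: plate controls were neutral wells for no effect and buffer without enzyme for full effect; nearly all actives have a fitted effect of over 40% in size; top concentration of the series not given in the record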
#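 Detergent-containing arm of a paired screen for aggregation-based inhibition: 0.01% Triton X-100 present. Cruzain at 1.5 nM cleaved 2 uM Z-FR-AMC at pH 5.5 with 5 mM DTT; AMC fluorescence gain over 60 s measured activity.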
# NS1 function inh – influenza NS1 inhibition; 270,000 compounds, 0.4% hits; S. cerevisiae slowed by influenza A NS1, growth recovery by OD600; Potency, µM (top dose mostly 46.1 µM), without a hit: top-dose activity, positive = more growth; active means well fitted rising curve with a large enough effect; inconclusive means small, poorly fitted or top-dose-only effect; inactive means no such curve, though single readings can be large or run the other way; also: nearly all actives have a fitted effect of over 50% in size
#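 Read-out: OD600 growth recovery of NS1-expressing budding yeast. Cells grown overnight at 30C in -URA glucose medium, washed, resuspended and diluted 1:100 in 2% galactose assay medium, pH 6.0. Same strain lacking NS1 served as positive control.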
# Lassa entry inh – Lassa virus entry inhibition | Lassa virus pseudotype entry inhibition, cell reporter; control for the full effect not named in the record | 300,000 compounds, 1.2% hits | Potency, µM (doses to about 37.9 µM), for the others: at the top dose activity change, negative = inhibition, hits mostly inhibitors; active means well fitted inhibition curve with a large enough effect; inconclusive means small, poorly fitted or top-dose-only effect, or effect the other way; inactive means flat fitted curve, though single readings scatter; tested in HEK293 cells; also: % is scaled to controls: 0 for no effect and ±100 for the full control effect; nearly all actives have a fitted effect of over 50% in size; luciferase read-out
# RE007 growth inh – less growth of the S. pombe RE007 Vpr strain. S. pombe RE007 Vpr strain, BacTiter-Glo ATP luminescence, 24 h; control for the full effect not named in the record. Potency, µM (titrated, usually from 92.2 µM), for the others: top-dose activity change, negative = less growth. 360,000 compounds, 0.21% hits. AID 651644; active = well fitted falling curve with a large enough effect; inconclusive = small, poorly fitted or top-dose-only effect; inactive = no such curve, though single readings can be large or run the other way;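 also: % is scaled to controls: 0 for no effect and ±100 for the full control effect; nearly all actives have a fitted effect of over 50% in size; the assay follows cell death caused by Vpr and the record does not say whether a fall means rescue or toxicity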
#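 Fission yeast RE007 carrying one integrated HIV-1 vpr copy, seeded at OD 0.01 in PMG+AL medium with 23 nL pinned compound. Grown 24 h at 30 degrees; viability read by BacTiter-Glo luminescence after 5 min.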
# SARS PLP yeast – SARS-CoV PLP inhibition in yeast; S. cerevisiae expressing SARS-CoV PLpro, growth rescue; control for the full effect not named in the record; 330,000 compounds, 0.19% hits; Potency, µM (highest dose often 32.9 µM), without a hit: at the top dose activity, positive = growth rescue; AID 485353; active means well fitted rising curve with a large enough effect; inconclusive means small, poorly fitted or top-dose-only effect; inactive means no such curve, though single readings can be large or run the other way; also: 0% is about no effect; nearly all actives have a fitted effect of over 55% in size; growth read by luminescence after 48 h
# Numbers without * were called inactive; ? = inconclusive; . = not tested or not shown; & = joins results of further samples; [ ] = remark or other dose. Unless noted, calls follow the shape of the dose curve; as a rule, active = well fitted curve in the direction sought with a large enough effect; inconclusive = small, poorly fitted or top-dose-only effect, or another doubt; inactive = no such curve, though single readings can be large; an effect the other way counts as inactive or inconclusive. Potency is read from the fitted curve at half-maximal effect.
[1] Cc1nn(Cc2ccccc2)c(C)c1NC(=O)c1cc(C(C)C)on1
[2] CCCCNS(=O)(=O)c1ccc(OC)c2ncccc12
[3] CCCCNC(=O)/C(C#N)=c1\s/c(=C\c2ccccc2OC(F)F)c(=O)n1CCCOC
[4] CN1CCN(CC(=O)Nc2nc(-c3ccccc3)cs2)CC1
[5] O=C(CCCN1C(=O)c2cccc3cccc(c23)C1=O)N1CCN(c2ccccn2)CC1
[6] O=C(OCC(=O)N1CCN(c2ccccc2)CC1)C1=COCCO1
[7] Cn1cnc2cc(NCc3ccccc3Cl)ccc21
[8] Cc1cc(-n2c(C)nc3ccccc3c2=O)ccc1NC(=O)C(F)(F)F
entry no.,1,2,3,4,5,6,7,8
Cruzain inh noDet,4%,-10%,10%,-15%,-8%,-3%,.,-9%
Marburg entry inh,-2%[46.1 µM],-14%,13%,13%&13%,-14%,-1%,?,.
2A StopGo,-28%,96%[activator],6%,5%,-22%,3%,28%,-23%
Cruzain Triton,-2.1%,-2.3%,-3.1%,-0.1%,-3.6%,3.5%,.,0.2%
NS1 function inh,.,-1%,-10%,17%,17%,11%,-7%,.
Lassa entry inh,-1%[46.1 µM],-6%,-20%,-26%,6%,13%,-8%[46.1 µM],-11%[46.1 µM]
RE007 growth inh,.,-7%,-6%,-7%,-10%,-8%,-12%,.
SARS PLP yeast,.,-4%,16%,-1%,-3%,3%,-5%,.

# Arranged by heavy-atom count (ascending): part of the list above
[7] Cn1cnc2cc(NCc3ccccc3Cl)ccc21
[4] CN1CCN(CC(=O)Nc2nc(-c3ccccc3)cs2)CC1
[6] O=C(OCC(=O)N1CCN(c2ccccc2)CC1)C1=COCCO1
[1] Cc1nn(Cc2ccccc2)c(C)c1NC(=O)c1cc(C(C)C)on1
[3] CCCCNC(=O)/C(C#N)=c1\s/c(=C\c2ccccc2OC(F)F)c(=O)n1CCCOC
entry no.,7,4,6,1,3
Cruzain inh noDet,.,-15%,-3%,4%,10%
Marburg entry inh,?,13%&13%,-1%,-2%[46.1 µM],13%
2A StopGo,28%,5%,3%,-28%,6%
Cruzain Triton,.,-0.1%,3.5%,-2.1%,-3.1%
NS1 function inh,-7%,17%,11%,.,-10%
Lassa entry inh,-8%[46.1 µM],-26%,13%,-1%[46.1 µM],-20%
RE007 growth inh,-12%,-7%,-8%,.,-6%
SARS PLP yeast,-5%,-1%,3%,.,16%

# Next section:
[9] OCCN1CCN(C(=S)NC2CCCC2)CC1
[10] Cc1cccc2sc(NC(=O)Cn3cccc3)nc12
[11] Cc1ccc2nc(-c3cccc(Br)c3)cc(C(=O)NC3=NCCS3)c2c1
[12] O=C(NCc1ccc2c(c1)OCO2)c1cc(F)c(F)cc1Cl
[13] CCOC(=O)c1cc(-c2ccccc2)n(CC(=O)Nc2ccc(OC)c(OC)c2)c1C
[14] COCc1nc2oc3ccccc3c(=O)c2cc1C(=O)OC
[15] COc1ccccc1CNC(=O)CCNS(=O)(=O)c1ccc2c(c1)CCCC(=O)N2
[16] CCCc1nc(SCc2ccccn2)c2c(=O)n(C)c(=O)n(C)c2n1
entry no.,9,10,11,12,13,14,15,16
Cruzain inh noDet,.,-6%,.,.,?,.,-9%,5%
Marburg entry inh,0%[46.1 µM],-5%,-13%,15%,-19%,.,.,.
2A StopGo,-7%,-15%,19%,45%[activator],0%,55%[activator],-24%,-2%
Cruzain Triton,.,-4.4%,.,.,-0.8%,.,-2.1%,-0.2%
NS1 function inh,.,-16%,11%,-5%,22%,0%,.,-84%
Lassa entry inh,3%,-24%,-17%,27%,6%,.,18%[46.1 µM],.
RE007 growth inh,3%,14%,?,-4%,-2%,13%,.,10%
SARS PLP yeast,0%,-35%,-1%,-2%,0%,1%,.,2%

# 2 of the compounds above, tab-delimited:
no.	compound	Cruzain inh noDet	Marburg entry inh	2A StopGo	Cruzain Triton	NS1 function inh	Lassa entry inh	RE007 growth inh	SARS PLP yeast
12	O=C(NCc1ccc2c(c1)OCO2)c1cc(F)c(F)cc1Cl	.	15%	45%[activator]	.	-5%	27%	-4%	-2%
13	CCOC(=O)c1cc(-c2ccccc2)n(CC(=O)Nc2ccc(OC)c(OC)c2)c1C	?	-19%	0%	-0.8%	22%	6%	-2%	0%

# New compounds follow:
[17] CCS(=O)(=O)N1CCN(C(C)CCc2ccccc2)CC1 (stereo not given)
[18] Cc1cccc(CSc2nc3c(cc2C#N)CN(C)CC3)c1
[19] O=C(c1cc(-c2ccccc2)on1)N1CCCc2ccccc21
[20] c1ccc2c(c1)CC/C2=N/Nc1nc2ccccc2[nH]1
[21] NC(=O)CC(NC(=S)NCc1ccccc1)C(=O)O (stereo not given)
[22] CCc1ccc(CN(C)C(=O)c2ccc3c(c2)OCCO3)cc1
[23] COc1ccc(Cl)cc1NC(=O)NC(C)c1ccncc1 (stereo not given)
[24] COc1ccc(CSCC(=O)N/N=C/c2ccccc2OCc2ccccc2)cc1
entry no.,17,18,19,20,21,22,23,24
Cruzain inh noDet,-1%,0%,.,.,-9%,.,5%,-8%
Marburg entry inh,-10%[46.1 µM],5%,.,?,0%,.,-2%,0%
2A StopGo,3%,3%,33%[activator],-35%,-31%,3%,0%,.
Cruzain Triton,0.9%,2.5%,.,.,8.0%,.,12%,-1.4%
NS1 function inh,7%,-6%,-8%,.,-2%,-31%,-14%,-48%
Lassa entry inh,-16%,9%,.,?,0%,.,4%,?
RE007 growth inh,-3%,12%,-4%,-7%,12%,-4%,9%,15%
SARS PLP yeast,-4%,-2%,-3%,-2%,19%,-2%,-4%,9%

[25] COc1ccc(OC)c(C(=O)c2coc3ccc(O)cc23)c1
[26] CN1CCN(CCOC2Cc3ccccc3Sc3ccc(Cl)cc32)CC1 (stereo not given)
[27] Cc1cccc(NNC(=S)Nc2c(C)cccc2C)c1
[28] NNC(=S)Nc1ccc(OC(F)(F)F)cc1
[29] Cc1ncsc1C(=O)N1N=C2/C(=C/c3ccc(N4CCOCC4)cc3)CCCC2C1c1ccc(N2CCOCC2)cc1 (stereo not given)
[30] CCOc1ccccc1Oc1coc2cc(OC(=O)c3ccco3)ccc2c1=O
[31] O=S(=O)(Nc1ccc(Br)cc1)c1cccc(NC(=S)NCCN2CCOCC2)c1
[32] COc1ccccc1/C=C/C=N/n1c(-c2cc(-c3ccccc3)n[nH]2)n[nH]c1=S
entry no.,25,26,27,28,29,30,31,32
Cruzain inh noDet,-3%,0%,.,.,?,-10%,.,.
Marburg entry inh,-25%,?,6%[46.1 µM],17%[46.1 µM],?,-2%,?,-1%
2A StopGo,-5%,?,6%,3%,5%,44%[activator],18%,-5%
Cruzain Triton,-2.8%,-4.9%,.,.,-1.4%,-5.9%,.,.
NS1 function inh,-9%,-24%,-53%,7%,8%,-42%,2%,14%
Lassa entry inh,?,?,5%,11%[46.1 µM],-53%[14.3 µM],31%,-24%,?
RE007 growth inh,18%,-5%,-8%,-3%,-12%,-3%,-3%,-5%
SARS PLP yeast,-12%,-13%,12%,12%,5%,-19%,2%,0%

[33] O=C(Nc1ccc(N2CCOCC2)cc1N1CCOCC1)c1ccc([N+](=O)[O-])cc1Cl
[34] COc1ccc(Br)c(C(=O)N2CCN(S(=O)(=O)/C=C/c3ccccc3)CC2)c1
[35] CCCNS(=O)(=O)c1ccc(OCC(=O)Nc2ccccc2F)cc1
[36] CCN(CC(=O)NCc1ccc(Cl)cc1)C(=O)CSCC(=O)Nc1cccc(C)c1
[37] COC(=O)c1c(-c2ccc(Cl)cc2)noc1N1CCN(c2cc(C)ccc2C)CC1
[38] COc1cccc(/C=C(\C#N)C(=O)NC2CCS(=O)(=O)C2)c1 (stereo not given)
[39] O=C(NCC(c1cccs1)N1CCOCC1)C1CCN(S(=O)(=O)c2cc(Cl)ccc2Cl)CC1 (stereo not given)
[40] COCCn1c(SCC(=O)Nc2ccc3[nH]c(=O)[nH]c3c2)nc2ccccc21
entry no.,33,34,35,36,37,38,39,40
Cruzain inh noDet,.,.,-6%,.,-8%,-5%,.,.
Marburg entry inh,-6%,3%,-4%,.,.,24%,?,?
2A StopGo,-10%,-16%,6%,7%,?,-19%,-9%,2%
Cruzain Triton,.,.,-0.9%,.,3.8%,-0.6%,.,.
NS1 function inh,13%,.,-5%,-7%,.,6%,.,.
Lassa entry inh,5%,-14%,6%,.,0%[46.1 µM],8%,-22%,23%[46.1 µM]
RE007 growth inh,-3%,7%,?,-8%,.,-13%,16%,-4%
SARS PLP yeast,0%,0%,18%,4%,.,-7%,.,-1%

[41] CCCOc1ccc(C(=O)NNC(=O)CCNC(=O)c2ccco2)cc1OC
[42] CCOC(=O)c1c(-c2ccccc2)oc2ccc(N(C(C)=O)S(=O)(=O)c3ccc(C)cc3)cc12
[43] CCCOC(=O)CCCC[C@H]1SC[C@@H](NC(=O)OC)[C@H]1NC(=O)OC
[44] Oc1ccccc1N1CCN(c2ncccn2)CC1
[45] CCOC(=O)c1cn(CC(=O)Nc2ccc(OC)cc2OC)nn1
[46] COc1cc2c(C(=O)N3CCN(c4ccccc4)CC3)c(C)oc2cc1Br
[47] COc1ccc(CN2C(=O)[C@@H]3C(c4ccccc4Cl)=NO[C@@H]3C2=O)cc1
[48] CCCCS(=O)(=O)N1CCN(C(=N)N[N+](=O)[O-])CC1
entry no.,41,42,43,44,45,46,47,48
Cruzain inh noDet,.,13%,-5%,3%,6%,20%,-3%,.
Marburg entry inh,20%,7%[46.1 µM],11%,6%,7%&7%[46.1 µM],?,22%[46.1 µM],10%[46.1 µM]
2A StopGo,-16%,24%,20%,1%,-6%&-7%,20µM*,-4%,-8%
Cruzain Triton,.,-2.6%,1.4%,-0.1%,2.1%,0.4%,-1.6%,.
NS1 function inh,.,.,10%,-3%,.,-87%,-66%,.
Lassa entry inh,19%,?,2%,?,20%[46.1 µM],?,5%,22%
RE007 growth inh,5%,.,24%,-6%,-18%,3%,-13%,13%
SARS PLP yeast,5%,.,27%,0%,1%,-6%,-4%,-7%
